Beta cell apopt: blocks beta cell apoptosis | 300,000 compounds, 0.8% hits | INS-1E cytokine-induced death, ATP luminescence, 48 h; percent of positive-control rescue, neutral wells zero | AID 435005 | protection from apoptosis, % (test concentration not listed);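 active = all replicates at 75% or more, or half of them and the mean; inconclusive = half reach 75% but not the mean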;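 also: 0% = cytokine-treated negative control wells and 100% = positive control rescue; higher means more ATP so stronger rescue from cytokine killing; wells of about 40 µL received 100 nL stock; the first replicate is given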
Calb FLC: C. albicans growth modulation with fluconazole; C. albicans CaCi-2 (fluconazole-resistant clinical isolate) + fluconazole, Alamar Blue growth, 48 h; growth inhibition, % (concentration not given with the values); 300,000 compounds, 0.57% hits;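 active = most replicates above 75%; inconclusive = exactly half above 75%; inactive = most below 75%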;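 also: all wells also contain fluconazole at 8 µg/ml as a sub-toxic cotreatment; 0% = median of DMSO wells and 100% = median of geldanamycin control wells; wells of about 8 µL received 7.5 nL stock; the first replicate is given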
LANA-H2A inh: blocks KSHV LANA binding to histone H2A/H2B; 320,000 compounds, 0.6% hits; inhibition, % (concentration not given with the values); cell-free LANA-H2A/H2B peptide, fluorescence polarization; Q9QR71; in the data active = inhibition mostly above about 10%, no sharp cut-off; inactive = mostly below about 6.7%;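 also: stock transfer was 7.5 nL into about 10 µL; 0% = median of vehicle wells and 100% = median of positive control wells; one replicate is shown; the record names a cut of 25% in any replicate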
Ecoli rRNA inh: inhibits bacterial ribosomal RNA function over humanized ribosomes; E. coli WT GFP vs humanized-ribosome RFP mutants, fluorescence, 24 h; stronger effect = lower value; DMSO median 0, no signal -100; GFP signal change (wild-type ribosome), % (test concentration not listed); 350,000 compounds, 1.6% hits; AID 720706;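 active = significant combined selectivity score with lowered wild-type GFP, culture density cut under 30%, mutant RFP and density less affected; inactive = any of these conditions unmet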; also: one replicate is shown; some compounds called inactive have numbers as strong as hits
T cruzi inh: T. cruzi replication inhibition. T. cruzi beta-gal in NIH3T3, luminescence, 90 h. inhibition, % (test concentration not listed). 300,000 compounds, 1.4% hits. AID 1885;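 active = mean inhibition across valid replicates above about 55%, limit read from the data; inconclusive = mean below that limit but half or more replicates reach it; inactive = mean below it, under half of replicates reach it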;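 also: signal also drops with host cell toxicity which is not excluded here; 0% = plate median of DMSO wells and 100% = zero luminescence signal; higher percent means less beta-gal luminescence so fewer parasites; stock transfer was 50 nL into about 50 µL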
Bfl-1 A1 inh: inhibitors of the anti-apoptotic protein A1, read as caspase activation. MEF A1-2A-BIM cells, Caspase-Glo 3/7 luminescence, 3 h; percent of clofoctol response, vehicle zero. caspase activation, % (concentration not given with the values). 330,000 compounds, 0.066% hits. AID 2462;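 active = over half of replicate activation scores above 10%, or exactly half above 10 with the replicate mean above 10; inconclusive = replicate mean below 10 yet half the replicates above 10; inactive = over half of replicates below 10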;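 also: wells of about 30 µL received 50 nL stock; many hits fall short of the cut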
Beta2AR agonist: human beta-2 adrenergic receptor agonism by FAP. Am2.2-beta2AR cells, FAP receptor internalization, flow cytometry; reference of the scale not given here. response, % (concentration not given with the values). 340,000 compounds, 0.43% hits. AID 504454;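 active = response above a set limit, near 3 SD of response in nonfluorescent compounds, cut at about 42% in these data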;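 also: stock transfer was 100 nL into about 11 µL; a reference agonist was the positive control; negative values mostly stem from fluorescent compounds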
Target sequence (P07550 whole entry, looked up): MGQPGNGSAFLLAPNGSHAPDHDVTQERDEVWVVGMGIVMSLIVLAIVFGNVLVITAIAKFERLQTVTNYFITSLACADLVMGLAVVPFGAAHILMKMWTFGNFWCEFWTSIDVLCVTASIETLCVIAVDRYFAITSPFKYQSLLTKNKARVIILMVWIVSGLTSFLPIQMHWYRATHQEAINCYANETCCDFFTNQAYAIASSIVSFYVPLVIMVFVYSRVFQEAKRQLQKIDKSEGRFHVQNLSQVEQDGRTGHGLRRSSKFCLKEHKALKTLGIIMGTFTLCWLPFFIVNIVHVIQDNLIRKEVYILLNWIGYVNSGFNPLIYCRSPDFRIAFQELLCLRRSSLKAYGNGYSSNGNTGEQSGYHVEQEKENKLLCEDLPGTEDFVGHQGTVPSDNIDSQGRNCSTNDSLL
ALR H2O2 inh: inhibitors of human sulfhydryl oxidase ALR; P55789; purified ALR, DTT oxidation, H2O2 HRP-luminol luminescence; inhibition, % (test concentration not listed); 290,000 compounds, 3.8% hits; AID 485317;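 active = mean and each replicate at 75% or more; inconclusive = only one of the two met; inactive = neither met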;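 also: stock transfer was 7.5 nL into about 7.5 µL; 0% = neutral wells and 100% = wells with inactivated enzyme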
Target sequence (P55789 whole entry, looked up): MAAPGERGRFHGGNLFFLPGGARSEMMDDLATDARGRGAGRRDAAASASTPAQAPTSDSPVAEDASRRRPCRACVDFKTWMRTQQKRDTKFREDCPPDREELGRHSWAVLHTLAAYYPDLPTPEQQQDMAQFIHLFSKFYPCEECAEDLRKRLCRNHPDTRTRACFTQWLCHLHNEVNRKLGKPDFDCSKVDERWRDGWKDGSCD
Ecoli rRNA inh OD600: recorded beside Ecoli rRNA inh, whose call it bears; OD600 change, %; measured here: OD600 growth;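 optical density of the mix in the first replicate; 0 = DMSO median and -100 = no signal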
Ecoli rRNA inh RFP: second read-out of Ecoli rRNA inh, no call of its own (marks repeat the call); RFP signal change, %; measured here: RFP humanized mutant strains;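 first replicate; 0 = DMSO median and -100 = no signal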
Starred values were filed as active, the others as inactive; ? = inconclusive; · = no result given. These rows are one share of the data; rates above refer to the full screens.

SMILES	Beta cell apopt	Calb FLC	LANA-H2A inh	Ecoli rRNA inh	Ecoli rRNA inh OD600	Ecoli rRNA inh RFP	T cruzi inh	Bfl-1 A1 inh	Beta2AR agonist	ALR H2O2 inh
Cc1cccc(Nc2nc(N)nc(CCl)n2)c1C	7	-12	-0.2	0	2	3.8	30	-0.1	34	91*
O=C(CN1CCN(Cc2ccc3c(c2)OCO3)CC1)Nc1cc(S(=O)(=O)N2CCCC2)ccc1Cl	6	-18	-4.3	5	2	2.6	11	0.2	7	·
COc1ccc(NC(=O)CSc2nccn2C)cc1S(N)(=O)=O	-7	4	4.2	2	2	1.8	0	-0.1	-3	99*
O=C(NC12CC3CC(CC(C3)C1)C2)c1cc(F)c(F)c(F)c1F	7	-4	0.3	4	-3	-4.2	2	0.2	-56	-9
Cc1cccc(NC(=S)NC(=O)c2ccc(-c3ccccc3)cc2)n1	4	-6	2.2	6	1	1.3	-9	-0.7	-5	·
Cc1c(Cl)cccc1NC(=O)CNC(=O)c1ccccc1F	2	-2	6.4	·	·	·	7	0.1	1	·
COc1ccc(C2C(C#N)=C(N)Oc3n[nH]c(C)c32)cc1Cn1nnc2ccccc21 (configuration not stated)	-6	3	11	8	3	-1.0	-8	0.5	0	5
N/C(=N\OC(=O)c1cccc(Cn2cc(C(F)(F)F)ccc2=O)c1)c1ccccc1	113*	-5	1.5	-6	1	4.2	3	0.1	4	-4
O=C(Nc1cccc(S(=O)(=O)N2CCCCCC2)c1)C1=COCCO1	-2	-5	-1.9	1	7	2.5	23	1.4	-8	2
COc1cc(F)c(C2=CC(=O)CC(C)(C)C2)cc1F	-9	·	0.4	-21*	-17*	2.2*	·	-0.2	-5	-4
Cn1c(C2=C(O)CN(Cc3ccccc3)C2=N)[n+](C)c2ccccc21	2	-1	1.6	-4	9	1.7	·	0.0	5	·
CCC(=NCc1ccccc1)C1=C(O)C(C(=O)OC)C(C)(C)CC1=O (configuration not stated)	-4	4	5.0	·	·	·	6	-0.6	-11	-10
CCOC(=O)c1nn(-c2ccc(C)c(C)c2)c(=O)c(C#N)c1C	0	-1	0.5	12	4	8.4	-11	-1.0	-1	-13
C#CCOCCOCCOCCNc1nc(N2CCN(C(=O)CCCCCCCCCCNC(=O)Cn3cc(CCCCCN)nn3)CC2)nc(N2CCN(C(=O)CCCCCCCCCCNC(=O)Cn3cc(C[C@@H](C)O)nn3)CC2)n1	10	·	-4.0	1	6	31	·	2.0	72*	4
Cc1nnc(NC(=O)C(c2ccccc2)c2ccccc2)s1	3	8	4.9	-2	1	-0.5	-4	2.2	3	2
COc1ccc(/C=C2\Oc3cc(OCC(=O)N4CCC(C(=O)O)CC4)ccc3C2=O)c(OC)c1OC	-11	-4	-1.4	-4	1	-7.4	-15	0.9	0	91*
COc1ccc(CNC(=O)Cn2ccc(NC(=O)OCc3ccccc3)nc2=O)cc1	1	·	-0.6	15	21	-6.7	·	0.1	-1	-1
COc1ccc(-c2cc(C(F)(F)F)nc(N)n2)cc1	-2	17	-1.0	7	-1	1.6	-2	0.1	-13	1
CCn1c(C(=O)NCCCc2ccccc2)cc2sccc21	-2	-4	2.9	·	·	·	14	0.0	1	·
CSc1nnc(C)c(=O)n1COC(=O)/C=C/c1ccc2c(c1)OCO2	-3	-5	-1.1	-11	-7	-2.3	7	-1.1	1	22
COC(=O)c1sccc1NC(=O)CSc1ccccc1NS(=O)(=O)c1ccc(F)cc1	14	12	-1.6	·	·	·	-12	-0.7	5	-2
CCc1ccc(NC(=O)C2CC=CCC2C(=O)O)cc1 (configuration not stated)	3	-2	2.9	·	·	·	-18	-0.5	7	-6
COc1ccc(C(=O)CCc2ccc(OC)c(OC)c2)cc1	·	-2	-3.0	-13	-23	-6.8	4	-0.7	-8	3
CSc1ccc(CNc2ccccn2)cc1	-2	0	-3.6	·	·	·	23	-4.6	-5	0
COc1ccc(C(=O)N2CCCC(c3ccccc3)C2)cc1 (configuration not stated)	6	·	0.0	·	·	·	·	0.7	-2	-4

In the list so far, these contain two or more sulfur atoms:
SMILES	Beta cell apopt	Calb FLC	LANA-H2A inh	Ecoli rRNA inh	Ecoli rRNA inh OD600	Ecoli rRNA inh RFP	T cruzi inh	Bfl-1 A1 inh	Beta2AR agonist	ALR H2O2 inh
COc1ccc(NC(=O)CSc2nccn2C)cc1S(N)(=O)=O	-7	4	4.2	2	2	1.8	0	-0.1	-3	99*
COC(=O)c1sccc1NC(=O)CSc1ccccc1NS(=O)(=O)c1ccc(F)cc1	14	12	-1.6	·	·	·	-12	-0.7	5	-2

3 compounds from above, sorted by their value in ALR H2O2 inh, low to high.
Molecule	LANA-H2A inh	Ecoli rRNA inh	Ecoli rRNA inh OD600	Ecoli rRNA inh RFP	Beta2AR agonist	ALR H2O2 inh
COc1cc(F)c(C2=CC(=O)CC(C)(C)C2)cc1F	0.4	-21*	-17*	2.2*	-5	-4
Cc1nnc(NC(=O)C(c2ccccc2)c2ccccc2)s1	4.9	-2	1	-0.5	3	2
COc1ccc(/C=C2\Oc3cc(OCC(=O)N4CCC(C(=O)O)CC4)ccc3C2=O)c(OC)c1OC	-1.4	-4	1	-7.4	0	91*

Next part
SMILES	Beta cell apopt	Calb FLC	LANA-H2A inh	Ecoli rRNA inh	Ecoli rRNA inh OD600	Ecoli rRNA inh RFP	T cruzi inh	Bfl-1 A1 inh	Beta2AR agonist	ALR H2O2 inh
O=C(COC(=O)Cc1n[nH]c(=O)c2ccccc12)Nc1c(Cl)cccc1C(F)(F)F	·	0	-2.5	5	4	-0.2	-4	0.3	-3	-4
COc1ccc(CCNC(=O)C(=O)NCC2OCCN2C(=O)c2ccc(Cl)cc2)cc1 (configuration not stated)	-2	-3	-4.5	7	14	-0.4	8	-0.4	4	-1
Cc1c(Cl)cccc1NC(=O)[C@@]1(CC(=O)O)CC(/C=C/c2ccccc2)=NO1	-7	9	3.4	6	5	-0.9	8	?	2	6
CN(C)S(=O)(=O)c1cccc(NC(=O)COC(=O)[C@H](Cc2ccccc2)NC(=O)c2ccco2)c1	-12	·	-2.1	·	·	·	·	-0.3	-7	47
Cc1cccc(C(=O)CC(=O)c2cc(Cl)ccc2O)c1	44	98*	-0.2	·	·	·	31	-1.0	8	·
Cc1ccc2nc(NC(=O)C3CCN(C(=O)c4ccc(F)cc4)CC3)sc2c1	66	2	4.3	1	0	-0.6	16	0.9	0	-9
CC(=O)c1cc2c(cc1N/C(=N/S(=O)(=O)c1ccc(C)cc1)c1ccc(Cl)cc1)OCO2	12	?	0.1	·	·	·	23	-0.4	-8	-4
O=C(CSc1nc2c(sc3ccccc32)c(=O)n1CCc1ccccc1)NCc1ccco1	·	-4	-11	·	·	·	15	0.7	1	-3
COC(=O)CNC(=O)C1Nc2ccccc2C2C=CCC12 (configuration not stated)	4	5	-2.5	8	-3	10	-12	0.1	8	-15
Cc1ccc(CS(=O)(=O)Cc2ccc(C(=O)NC3CC3)o2)cc1	2	-6	5.6	13	5	1.4	-3	0.2	3	-3
CC(C)(C)C(=O)N1CCN(c2ccc([N+](=O)[O-])c(NCc3cccnc3)c2)CC1	12	5	6.3	-28	-32	0.4	17	0.1	4	4
O=C(O)c1ccccc1-c1nc(-c2ccccc2)c(-c2ccccc2)[nH]1	-1	16	2.9	1	5	0.6	-12	-0.4	6	26
CNC(=S)N1CCN(c2nc3ccccc3s2)CC1	2	-9	1.7	-10	-12	-4.4	16	-0.5	0	-7
CCOc1ccc(Br)cc1CN(CC)CC	-3	-1	-0.6	34	16	6.3	19	0.3	-4	0
CCCc1cc(=O)oc2c(CN3CCCC3)c(O)c(Cl)cc12	2	44	2.1	·	·	·	2	0.1	-8	10
Brc1ccc(-c2ccc(/C=N/Nc3nncc(-c4ccccc4)n3)o2)cc1	17	45	2.7	·	·	·	-5	0.4	21	-1
Cc1cccc(NC(=O)COC(=O)Cc2cccs2)c1C	·	-3	-2.7	14	9	-0.7	-6	0.0	2	·
COCc1nnc(NC(=O)c2ccc(NC(=O)C(C)C)cc2)s1	·	7	-3.2	·	·	·	3	0.6	-9	-7
CCOC(=O)Cc1c(C)nc2c(-c3ccccc3)c[nH]n2c1=O	8	-2	-5.3	·	·	·	-6	-0.3	7	39
COC(=O)C(COC(=O)c1c(F)cccc1F)NC(=O)c1c(F)cccc1F (configuration not stated)	-12	0	-9.9	12	3	-3.1	-17	0.4	14	8
CC1CCCN(C(=O)C2CCC(CNc3c(N4CCCCC4)c(=O)c3=O)CC2)C1 (configuration not stated)	0	-7	-3.1	2	-1	-4.4	-6	-0.3	-4	0
Nc1nc(CSc2nnnn2-c2ccc(F)c(Cl)c2)nc(N2CCOCC2)n1	0	-6	-0.7	·	·	·	-9	0.3	-10	-2
COc1cc(C(C)=O)ccc1OCC(=O)NCC1(N2CCCCC2)CCCCC1	-7	-7	-1.2	11	12	2.1	0	-0.2	-4	-4
O=C(O)c1cc(N/N=C/c2cccnc2)ccc1Cl	-8	-10	-1.0	0	5	-0.4	-3	-2.3	-6	45
C/C(=N\NC(=O)c1cc(Cl)ccc1O)c1ccc(Br)s1	-3	-1	-0.7	·	·	·	-18	-4.8	12	6
Cc1cc(=O)nc2c3ccccc3n(C(C)C(=O)Nc3c(F)c(F)c(F)c(F)c3F)n12 (configuration not stated)	2	-25	1.0	5	5	-0.3	15	-0.9	-1	4
CC(=O)Nc1ccc(C(=O)Nc2cccc(S(=O)(=O)N(C)c3ccccc3)c2)cc1	-2	·	-2.1	-25	-23	2.3	·	0.9	-2	-3
COc1nc(NC(=O)c2ccc(F)cc2)nc(OC)c1-c1ccccc1	-3	-1	0.1	1	-1	1.1	8	0.8	4	-5

Whole records, quoted from the list. Order of values: Beta cell apopt | Calb FLC | LANA-H2A inh | Ecoli rRNA inh | Ecoli rRNA inh OD600 | Ecoli rRNA inh RFP | T cruzi inh | Bfl-1 A1 inh | Beta2AR agonist | ALR H2O2 inh
COC(=O)C(COC(=O)c1c(F)cccc1F)NC(=O)c1c(F)cccc1F (configuration not stated) in the list: -12 | 0 | -9.9 | 12 | 3 | -3.1 | -17 | 0.4 | 14 | 8
Cc1ccc(CS(=O)(=O)Cc2ccc(C(=O)NC3CC3)o2)cc1 in the list: 2 | -6 | 5.6 | 13 | 5 | 1.4 | -3 | 0.2 | 3 | -3
C/C(=N\NC(=O)c1cc(Cl)ccc1O)c1ccc(Br)s1 in the list: -3 | -1 | -0.7 | · | · | · | -18 | -4.8 | 12 | 6
Cc1c(Cl)cccc1NC(=O)[C@@]1(CC(=O)O)CC(/C=C/c2ccccc2)=NO1 in the list: -7 | 9 | 3.4 | 6 | 5 | -0.9 | 8 | ? | 2 | 6
COc1nc(NC(=O)c2ccc(F)cc2)nc(OC)c1-c1ccccc1 in the list: -3 | -1 | 0.1 | 1 | -1 | 1.1 | 8 | 0.8 | 4 | -5
